# VCAM-1 up – boosters of cytokine-driven VCAM-1 levels – cell-based, plate reader, pooled HUVEC, TNFa stimulus (AID 455); HUVEC TNFa-induced VCAM-1 immunofluorescence, plate reader; numbers were filed only for top-ranked candidate wells; augmentation, % at 5 µM; 0.2% of 10,000 active;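 active = a compound raising TNF-alpha-driven VCAM-1 surface staining, with its hit status upheld on visual or statistical review; inactive = the rest, including hits rejected on review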;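 also: 0% = TNFa with vehicle and 100% = strongest image-checked hit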
# 26S disassembly – blocks ATP-dependent breakdown of the yeast 26S proteasome | anti-FLAG beads, GFP-proteasome disassembly, flow cytometry | inhibition of disassembly, % (no concentration beside the values) | 0.2% of 24,000 active | AID 751;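 active = above 40%; inconclusive = likely self-fluorescent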;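 also: plate controls were ATP control with full disassembly for no effect and ATP-gamma-S intact proteasomes for full effect; higher percent means more bead fluorescence retained so stronger block of disassembly; stock transfer was 100 nL into about 10 µL; wells with too few beads may also be inconclusive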
# * = called active by the depositor; i = inactive; ? = inconclusive; · = no result given. This is a subset; the hit share may differ from the screen's.
# Sequence of screens: VCAM-1 up | 26S disassembly
- COc1ccc(C2C(C#N)=C(N)OC3=C2C(=O)CC(C)C3)c(OC)c1OC (stereo unspecified)
  i | -3.3
- O=C1OCCC1Sc1ncnc2sc3c(c12)CCC3 (stereo unspecified)
  i | ?
- CCC1CCCCN1S(=O)(=O)c1ccc(C(=O)Nc2nnc(-c3ccccc3Cl)o2)cc1 (stereo unspecified)
  i | 0.1
- CC(=O)OCC(=O)[C@@]1(O)CC[C@H]2[C@@H]3CCC4=CC(=O)CC[C@]4(C)[C@H]3[C@@H](O)C[C@@]21C
  i | -0.3
- O=C(CCNS(=O)(=O)c1ccc(Br)cc1)NCc1ccc2c(c1)OCO2
  · | -2.3
- CCc1ccccc1S(=O)(=O)Cc1ccc(C(=O)NC(C)C)o1
  · | -0.8
- O=C(CSc1ccccc1C(=O)NCCCN1CCCC1=O)NCc1ccco1
  i | -1.9
- O=C(CCNC(=O)Cn1cnc2ccccc2c1=O)NCC1COc2ccccc2O1 (stereo unspecified)
  · | 0.3
- Cc1ccc(S(=O)(=O)N2CCN(C(=O)c3ccccc3)C2C(C)C)cc1 (stereo unspecified)
  · | 0.6
- O=C1CSC(c2cn(-c3ccccc3)nc2-c2ccccc2)N1Cc1ccco1 (stereo unspecified)
  i | 1.9
- COc1ccc(OC)c(-c2nnc(SCC(=O)N3CCCc4ccccc43)o2)c1
  · | 1.3
- CCOCCCNC(=O)C1CCN(S(=O)(=O)N2CCCCC2)CC1
  · | -0.4
- CCOC(=O)c1cccc(NC(=O)CCc2nc(-c3ccccc3F)no2)c1
  · | -0.8
- COc1ccc(OC)c2sc(N3CCN(c4ccccc4)CC3)nc12
  · | -0.1
- Cn1c(SCC(=O)Nc2ccc3c(c2)oc2ccccc23)nnc1-c1ccccc1
  i | 1.5
- CC(NC(=O)c1cc(-c2ccc(Br)cc2)on1)c1ccccc1 (stereo unspecified)
  · | -1.1
- CCCCc1nc2c(=O)[nH]c3ccccc3c2o1
  · | 0.2
- CCCC1(C(=O)OCC)NC(c2ccc(N(C)C)cc2)C2C(=O)N(c3ccccc3)C(=O)C21 (stereo unspecified)
  i | 1.7
- C=CCc1cc(C)ccc1OCC(O)CN1CCN(c2ccccc2)CC1 (stereo unspecified)
  · | 1.1
- COc1cccc(C2CC(c3ccccc3Cl)n3nnnc3N2)c1 (stereo unspecified)
  · | 0.9
- CC(C)c1nnc(NC(=O)c2ccc(N3C(=O)CCC3=O)cc2)s1
  i | -0.3
- CCOC(=O)c1cccc(NC(=O)C2CCCN(S(=O)(=O)c3c(C)n[nH]c3C)C2)c1 (stereo unspecified)
  · | 0.5
- N#CCCSc1ccccc1NC(=O)c1ccc(S(=O)(=O)N2CCCC2)cc1
  · | 0.4
- COc1ccc([C@@H]2Sc3ccccc3N(CCN(C)C)C(=O)[C@@H]2OC(C)=O)cc1
  i | -0.3
- CNC(=O)CN1C(=O)C2C3C=CC(C3)C2C1=O (stereo unspecified)
  · | 1.6
- CCOCCOC(=O)CCSc1n[nH]c(=O)[nH]c1=O
  · | -1.4
- COc1ccc(C(=O)NCc2ccccc2OC)cc1
  i | 2.6
- COc1ccc(NC(=O)C2c3cc(OC)c(OC)cc3C(=O)N(C)C2c2cccnc2)cc1OC (stereo unspecified)
  · | -0.7
- COc1ccc(OC)c(-c2nnc(SCC(=O)N3CCOCC3)o2)c1
  · | -2.2
- O=C(CCSc1nc(-c2ccc3c(c2)OCO3)cc(C(F)(F)F)n1)NCc1ccco1
  · | -0.1

# Following part:
# Sequence of screens: VCAM-1 up | 26S disassembly
- O=C(CSc1nc(O)c(C2CCCCC2)c(=O)[nH]1)NCC1CCCO1 (stereo unspecified)
  · | 1.4
- CCNC(=O)CC1C(=O)N(c2ccc(OC)cc2)C(=O)N1Cc1ccc(OC)cc1 (stereo unspecified)
  · | -1.4
- O=C(CN1CCN(C(=O)c2ccccc2F)CC1)Nc1ccc(Br)cc1
  · | 2.2
- CCOC(=O)CNc1c(-c2ccc(F)cc2)nc2cnccn12
  · | 0.3
- c1ccc(N2CCN(c3nc4ccccc4n4nnnc34)CC2)cc1
  · | -3.1
- Cc1ccc(NC(=O)C2C3C=CC4(CN(Cc5cccnc5)C(=O)C24)O3)cc1 (stereo unspecified)
  · | -0.4
- Cc1cc(C)n2c(SCC(=O)Nc3cc(C)on3)nnc2n1
  i | -0.3
- COCCNS(=O)(=O)c1cccc2cccnc12
  · | -1.2
- O=C(NCc1ccc2c(c1)OCO2)c1cc2c(s1)CSC2
  · | -0.1
- COc1cc(C(=O)NCCc2nc3ccccc3n2C)cc(OC)c1OC
  · | 0.3
- COc1cccc(N2CCN(C(=O)c3ccc(N4C(=O)NC5CC4(C)Oc4ccccc45)cc3)CC2)c1 (stereo unspecified)
  · | 0.8
- CCC(C)OC(=O)c1[nH]c2c(c1C)C(=O)CC(c1ccc(N(C)C)cc1)C2 (stereo unspecified)
  i | 1.4
- COc1cc(OC)c(NC(=O)CS(=O)(=O)Cc2nc(-c3ccc(C)cc3)oc2C)cc1Cl
  · | 23
- COc1ccc(OCc2nc(N)nc(Nc3cccc(C)c3C)n2)cc1
  i | 0.6
- Cc1ccc(S(=O)(=O)Nc2nc3ccccc3nc2NCc2ccco2)cc1
  i | -0.4
- CCOCCCNC(=O)C(c1ccc(C)cc1)N(Cc1ccc2c(c1)OCO2)C(=O)CNC(C)=O (stereo unspecified)
  · | 0.3
- CC1=C(/C=C/C(C)=C/C=C/C(C)=C/C(=O)O)C(C)(C)CCC1
  i | 1.7
- O=C(NCCN1CCN(Cc2ccccc2)CC1)C1CC(=O)N(C2CCCC2)C1 (stereo unspecified)
  · | -0.8
- COc1cccc(OCC(=O)Nc2ccccc2C(N)=O)c1
  i | -2.5
- CC(=O)NC1CC2CCCC(C1)N2CC(=O)Nc1ccccc1 (stereo unspecified)
  i | -0.9
- O=C(CCn1c(=O)oc2ccccc21)N1CCN(c2ccccc2Cl)CC1
  i | 18
- N#Cc1c(NC(=O)c2ccc(Br)o2)n(-c2ccccc2)c2nc3ccccc3nc12
  i | 15
- Cc1ccc(-n2nnc3c(=O)n(CC(=O)N4CCCC4)cnc32)cc1
  · | 0.1
- CCOc1cc(CNC(=O)CN2C(=O)c3ccccc3S2(=O)=O)ccc1OC
  · | 0.2
- CC(O)Cc1nsc(NC(=O)c2ccc(Br)o2)n1 (stereo unspecified)
  · | -0.2
- COc1cccc2cc(C(C)N(CCCN3CCOCC3)C(=O)Nc3ccc(Cl)cc3)oc12 (stereo unspecified)
  · | 0.4
- COC(=O)c1cc2ccsc2n1CC(=O)N1CCCc2ccccc21
  · | 1.4
- Cc1cc2cc(CCNC(=O)c3ccc(Br)o3)c(=O)[nH]c2cc1C
  · | 0.2
- Cc1ccccc1Cn1cc(NC(=O)c2cc(-c3cccs3)on2)cn1
  · | 0.2
- CCC(C(=O)NC1CCCC1)N(Cc1ccco1)C(=O)Cn1nnc(-c2ccc(C)cc2)n1 (stereo unspecified)
  i | 0.6

# Next section:
# Sequence of screens: VCAM-1 up | 26S disassembly
- O=C(Cn1cccc1C(=O)c1ccccc1)NCc1ccco1
  · | 0.7
- Cc1cc(Nc2c(C)cccc2C)n2nc(C)nc2n1
  · | 1.3
- CN(C)c1nc(N)nc(-c2nc3ccccc3s2)n1
  i | 0.6
- CC(=O)Nc1cccc(NC(=O)CSc2nnnn2C(C)C)c1
  i | -1.0
- Cc1ccc(C)c(N2CCN(CC(=O)Nc3ccc4[nH]c(=O)[nH]c4c3)CC2)c1
  · | 2.7
- NC(=O)c1sc2nc(N3CCCCC3)c3c(c2c1N)CCCC3
  i | 0.5
- O=C(C1CCN(c2nnnn2-c2ccccc2)CC1)N1CCN(c2ccccc2)CC1
  i | -0.2
- Brc1cccc(C2CC(c3ccccc3)n3nnnc3N2)c1 (stereo unspecified)
  · | -1.4
- CCCn1c(=O)c2ccccc2n2c(SCCOc3ccccc3F)nnc12
  i | -0.6
- CCOC(=O)C1=C(C)NC(=O)NC1c1ccc(Br)s1 (stereo unspecified)
  i | -1.3
- COC(=O)C1CCN(c2cc(=O)n(-c3ccccc3Cl)c(=O)[nH]2)CC1
  · | 0.0
- CCC1(C(=O)O)NC(c2cc(OC)ccc2O)C2C(=O)N(Cc3ccccc3)C(=O)C21 (stereo unspecified)
  · | 2.6
- Cc1cc(C)n(CCCNC(=O)c2ccc3c(c2)NC(=O)CS3)n1
  i | -0.9
- CCOC(=O)N1CCC(NC(=O)CCc2c(C)nc3ncnn3c2C)CC1
  · | 2.2
- Cc1cccc(-c2c3c(=O)n(C)c(=O)n(C)c3c3c(C)cc(C)nn23)c1
  · | -1.4
- CC(=O)N1CCCc2cc(S(=O)(=O)N(CC(C)C)CC(C)C)ccc21
  · | 0.2
- Cc1ccccc1CS(=O)(=O)Cc1ccc(C(=O)NCCCN2CCCC2=O)o1
  · | 0.3
- c1ccc(Nc2nc3ccccc3n3cnnc23)cc1
  · | -0.3
- Cc1cc(NC(=O)CSc2ncnc3ccccc23)no1
  · | -0.2
- Cc1cc(C)cc(OCC(O)CN2C(=O)NC(C)(C)C2=O)c1 (stereo unspecified)
  · | 0.3
- CC1C(=NO)C(C)C(c2ccc(N(C)C)cc2)NC1c1ccc(N(C)C)cc1 (stereo unspecified)
  · | 0.7
- Cc1ccc(Cl)cc1N1CCN(S(=O)(=O)c2ccc3c(c2)oc(=O)n3C)CC1
  · | 0.1
- O=C(O)Cn1nc2ccccc2n1
  i | 1.1
- COc1ccc(C(C(=O)NC2CCCCC2)N2CCC3(CC2)OCCO3)cc1 (stereo unspecified)
  i | -1.1
- COC(=O)c1sc(S(=O)(=O)N2CCC(C)CC2)c(C(=O)OC)c1C
  · | 1.9
- COc1ccc(-c2csc(=Nc3ccccc3)n2CCO)cc1
  · | -0.5
- O=C(CS(=O)(=O)c1cn(Cc2ccc(Cl)cc2)c2ccccc12)N1CCCC1
  i | -0.1
- CCOc1ccc(N(CC(=O)Nc2cccc(Cl)c2)S(=O)(=O)c2c(C)noc2C)cc1
  · | 0.1
- CC1CCc2nn(CC(=O)NCCCN3CCCC3=O)cc2C1 (stereo unspecified)
  · | 0.7
- CCSc1nnc(NC(=O)C(Cc2ccccc2)n2cccc2)s1 (stereo unspecified)
  · | 0.5

# The list goes on:
# Sequence of screens: VCAM-1 up | 26S disassembly
- N#Cc1c2n(c(=S)n(-c3ccccn3)c1=O)CCCCC2
  i | 2.3
- CCOCCCn1c(=N)c(C(=O)NCCN2CCOCC2)cc2c(=O)n3cccc(C)c3nc21
  · | 0.3
- CN(CCC#N)C(=O)c1ccc(CNS(=O)(=O)c2ccc(F)cc2)cc1
  · | 6.7
- CCC(C)NC(=O)c1ccc(CS(=O)(=O)c2ccc(OC)cc2)o1 (stereo unspecified)
  · | 0.7
- CN1CCN(C(=O)C2CC(=O)N(c3ccc(F)c(Cl)c3)C2)CC1 (stereo unspecified)
  · | 0.5
- COc1ccc(C2NC(C(=O)O)CS2)cc1COCC(F)(F)F (stereo unspecified)
  · | 0.4
- CC1(C)CC(=O)C=C(Nc2ccc(F)cc2)C1
  i | 2.4
- Cc1cccc(N2CCN(C(=O)COc3cc(=O)n(C)c4ccccc34)CC2)c1C
  · | 0.9
- CN(C)C=NCCn1c(N2CCOCC2)nc2c1c(=O)n(C)c(=O)n2C
  · | -1.1
- O=C(O)c1ccc2c(c1)C(=O)N(c1ccc(Cl)cn1)C2=O
  i | 0.6
- CCSC1(SCC)N=C(N)C2(C#N)C(c3ccc(OC)c(OC)c3OC)C12C#N (stereo unspecified)
  · | 0.9
- O=C(c1cc2ccccc2c(=O)o1)N1CCc2ccccc2C1
  · | -2.9
- O=C(C1CCCN(S(=O)(=O)c2cccc3cccnc23)C1)N1CCc2ccccc21 (stereo unspecified)
  · | 1.0
- COc1ccc(C2CC(c3ccc(Cl)cc3Cl)Nc3nc(N)nn32)cc1OC (stereo unspecified)
  · | 0.6
- Cc1ccc(S(=O)(=O)NCC(=O)OCN2C(=O)c3ccccc3C2=O)cc1
  i | -0.8
- CCn1c(=O)cc(OCC(=O)Nc2ccc(C)cn2)c2ccccc21
  · | -0.7
- CCOc1cc2[nH]c(=O)n(Cc3ccc(C(=O)NCCOC)cc3)c(=O)c2cc1OCC
  · | 0.1
- COc1ccc(Nc2cc(=O)n(C3CCCCC3)c(=O)[nH]2)c(OC)c1
  · | -0.3
- CCOC(=O)c1oc2c(CN3CCN(C)CC3)c(O)ccc2c(=O)c1-c1ccccc1OC
  i | -1.3
- CCOC(=O)NC(c1ccccc1)C1CCCCC1=O (stereo unspecified)
  i | -1.6
- Cc1nc2ncnn2c(C)c1CCC(=O)NCc1ccco1
  · | -0.2
- Cc1ccc(-c2csc3nnc(SCC(=O)NCc4ccco4)n23)cc1
  i | -1.6
- O=C(Nc1nc2ccccc2[nH]1)c1ccccc1F
  · | -5.7
- CCc1ccc(Cn2nnc(C(=O)Nc3cccc(C)c3)c2N)cc1
  · | -0.5
